Bioassay records (PubChem BioAssay)
MLL AF4-AF9 inh: blocks AF4 peptide binding to human AF9; AlphaScreen, biotin-AF4 peptide binding to FLAG-AF9; inhibition, % at 10 µM; 350,000 tested, 0.47% active;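 active = every replicate reaching a set inhibition limit, whatever the replicate mean, cut at about 25% in these data; inconclusive = mean inhibition reaches that limit but some replicates miss it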;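 also: 0% = plate neutral control median and 100% = total signal loss; the record names both 10 and 1 µM as test concentration; the first replicate is given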
Target sequence (P42568 whole entry, looked up): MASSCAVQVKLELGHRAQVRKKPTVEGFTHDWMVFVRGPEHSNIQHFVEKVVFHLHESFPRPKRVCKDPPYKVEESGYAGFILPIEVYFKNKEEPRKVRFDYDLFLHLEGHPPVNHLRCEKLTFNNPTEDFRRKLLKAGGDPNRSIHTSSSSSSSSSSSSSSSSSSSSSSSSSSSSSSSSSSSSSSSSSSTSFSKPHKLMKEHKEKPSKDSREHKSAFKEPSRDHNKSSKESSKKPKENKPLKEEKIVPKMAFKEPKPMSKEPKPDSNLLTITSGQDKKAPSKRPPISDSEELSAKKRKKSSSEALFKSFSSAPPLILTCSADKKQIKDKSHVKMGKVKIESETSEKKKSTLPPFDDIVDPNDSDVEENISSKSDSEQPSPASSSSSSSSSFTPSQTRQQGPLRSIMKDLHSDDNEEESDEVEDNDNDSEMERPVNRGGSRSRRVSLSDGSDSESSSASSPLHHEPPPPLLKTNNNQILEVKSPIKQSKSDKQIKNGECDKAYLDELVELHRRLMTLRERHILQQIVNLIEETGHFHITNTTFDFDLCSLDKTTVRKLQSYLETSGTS
ALR H2O2 inh: blocks human ALR sulfhydryl oxidase activity. P55789. AID 485317. purified ALR, DTT oxidation, H2O2 HRP-luminol luminescence. 290,000 tested, 3.8% active. inhibition, % (concentration not given with the values);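 active = mean and each replicate at 75% or more; inconclusive = only one of the two met; inactive = neither met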;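 also: stock transfer was 7.5 nL into about 7.5 µL; 0% = neutral wells and 100% = wells with inactivated enzyme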
Target sequence (P55789 whole entry, looked up): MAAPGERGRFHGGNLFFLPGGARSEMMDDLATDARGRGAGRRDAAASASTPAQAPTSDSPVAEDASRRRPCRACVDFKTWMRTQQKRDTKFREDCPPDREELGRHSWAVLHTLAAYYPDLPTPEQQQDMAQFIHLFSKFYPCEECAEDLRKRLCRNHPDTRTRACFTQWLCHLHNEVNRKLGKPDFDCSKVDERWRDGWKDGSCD
HNF4A DNA FP: change in binding of human HNF4 alpha to DNA; P41235; activity change, % at 10 µM; AID 1224865; HNF4a-FITC DNA binding, fluorescence polarization, 1 h; 360,000 tested, 0.3% active; in the data active = activity change above about 30%, passing the limit was not always enough;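 also: controls were the assay level and a saturating level of protein; the project sought stronger binding though the title names inhibitors; some compounds called inactive have numbers as strong as hits; positive values seem to mean higher polarization but the record does not say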
E coli growth: E. coli growth inhibition | 330,000 tested, 0.21% active | AID 1053175 | OD600 absorbance (concentration not given with the values) | Escherichia coli growth, OD600, 23 h; stronger effect = lower value;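 active = OD600 absorbance below the run mean of sample wells minus 3.6 SD, in any replicate, cut at about 0.56 in these data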;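 also: stock transfer was 300 nL into about 60 µL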
Vif TR-FRET: inhibitors of Vif binding to APOBEC3G peptide, primary screen, biochemical, TR-FRET, GST-Vif 1-94, biotin-A3G peptide, dose response retest (AID 1117319); 260,000 tested, 0.57% active; TR-FRET GST-Vif / biotin-A3G peptide binding; higher % means a stronger effect; test concentration not given here; strong numbers were not always called active; one-dose inhibition, %; IC50 in µM for titrated hits;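 active = above the screen mean plus three standard deviations and confirmed in dose response; inconclusive = results disagree or hit not tested in dose response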;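 also: Vif residues 1-94 fused to GST binding biotinylated APOBEC3G peptide 110-148; 0% = full assay without inhibitor and 100% = GST in place of GST-Vif; retest series ran down from 100 µM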
FGF22 binding: FGF22 (human) thermal shift binding. Q9HCT0. recombinant FGF22 thermal shift, SYPRO orange fluorescence; percent of sucrose octasulfate shift, DMSO zero. calls only at 9.99 µM. 340,000 tested, 1.5% active. AID 651658;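 active = melting point raised past a set limit in the mean and every replicate; inconclusive = no clear call; three in four hits are not shown here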
Target sequence (Q9HCT0 whole entry, looked up): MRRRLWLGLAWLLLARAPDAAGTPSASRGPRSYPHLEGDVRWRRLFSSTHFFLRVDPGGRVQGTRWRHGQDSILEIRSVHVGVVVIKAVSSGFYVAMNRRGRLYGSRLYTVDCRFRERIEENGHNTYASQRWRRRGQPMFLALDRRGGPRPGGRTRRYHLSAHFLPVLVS
rRNA inh HTS: inhibitors of bacterial rRNA selective over humanized ribosomes. E. coli WT GFP vs humanized-ribosome RFP mutants, fluorescence, 24 h; stronger effect = lower value; DMSO median 0, no signal -100. GFP signal change (wild-type ribosome), % (test concentration not listed). 350,000 tested, 1.6% active;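 active = significant combined selectivity score with lowered wild-type GFP, culture density cut under 30%, mutant RFP and density less affected; inactive = any of these conditions unmet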; also: one replicate is shown; some compounds called inactive have numbers as strong as hits
rRNA inh HTS OD600: recorded beside rRNA inh HTS, whose call it bears; OD600 change, %; measured here: OD600 growth;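 optical density of the mix in the first replicate; 0 = DMSO median and -100 = no signal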
rRNA inh HTS RFP: recorded beside rRNA inh HTS, whose call it bears; RFP signal change, %; measured here: RFP humanized mutant strains;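 first replicate; 0 = DMSO median and -100 = no signal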
* hit, by the source's call; i = inactive; ? = inconclusive; . = not tested or not shown; & = joins results of further samples. The list is partial; count on the stated rates, not on these rows.

item	SMILES	rRNA inh HTS	ALR H2O2 inh	E coli growth	Vif TR-FRET	FGF22 binding	rRNA inh HTS OD600	HNF4A DNA FP	rRNA inh HTS RFP	MLL AF4-AF9 inh
1	COc1ccc(Cl)cc1S(=O)(=O)N1CCN(C(=O)c2cc(OC)c(OC)c(OC)c2)CC1	.	.	0.79	7%	.	.	3.4	.	.
2	COCCCn1c(-c2ccc(S(=O)(=O)N3CCOCC3)cc2)csc1=Nc1ccccc1	.	6	0.72	-156%	.	.	-5.8	.	.
3	Cc1noc(C)c1S(=O)(=O)N(C)C[C@H]1Oc2c(NC(=O)C3CC3)cccc2C(=O)N([C@@H](C)CO)C[C@H]1C	-5	.	.	.	i	2	.	0.9	-0.4
4	O=C1NC(c2ccncc2)Nc2ccccc21 (configuration not stated)	.	-12	0.68	0%	.	.	.	.	.
5	O=C(CN1CCN(c2ccc(F)cc2)CC1)Nc1ccccc1[N+](=O)[O-]	2	67	0.72	-1%	.	5	2.6	-3.1	2.1
6	COc1ccc([C@H]2Oc3cc(O)cc(O)c3C(=O)C2[C@@H]2C(=O)c3c(O)cc(O)cc3O[C@@H]2c2ccc(OC)cc2)cc1 (some centres not stated)	7	-5	.	.	i	18	.	-11	15
7	CCCn1c(=N)c(S(=O)(=O)c2ccc(F)cc2)cc2c(=O)n3cccc(C)c3nc21	3	-5	0.67	.	i	4	-3.0	2.1	-0.5
8	CCOc1ccccc1NC(=O)c1sc2nc(C)nc(N3CCOCC3)c2c1C	-1	5	0.67	-8%	i	1	1.5	-0.8	-0.6
9	COc1ccc(-c2csc(C(O)c3ccc(F)c(OC)c3)n2)cc1 (configuration not stated)	-64	.	.	.	i	-77	-0.4	-20	-2.5
10	O=C(COc1ccccc1)N1CCc2ccccc2C1	.	0	0.69	-3%	.	.	-3.9	.	.
11	Cc1ccccc1N(CC(=O)NC1CCCC1)C(=O)c1oc(C(C)(C)C)cc1C	.	-3	0.72	31%	.	.	0.5	.	.
12	C[C@@H]1CN([C@@H](C)CO)C(=O)c2cc(NS(=O)(=O)c3cccs3)ccc2O[C@@H](C)CCCCO[C@@H]1CN(C)CC1CCCCC1	-1	.	.	.	i	-17	.	-3.5	4.9
13	CCN1C(=O)N(CN2CCOCC2)C2C1N(CN1CCOCC1)C(=O)N2CC (configuration not stated)	.	1	0.66	.	.	.	0.0	.	.
14	N#Cc1cnn(-c2ccc([N+](=O)[O-])cc2[N+](=O)[O-])c1N	-7.5*	.	.	0%	i	6.0*	-3.8	4.7*	1.8
15	CC(C)CN1C(=O)c2ccc(C(=O)Nc3nccs3)cc2C1=O	.	-2	0.71	1%	.	.	3.9	.	.
16	CCOC(=O)c1ccc(NC(=O)c2cn(CCC#N)nc2-c2ccc3c(c2)OCCO3)cc1	.	-1	0.7	.	i	.	-1.4	.	0.6
17	COc1ccc(-c2cn(CC[C@H]3CC[C@@H](NC(=O)Cc4ccccn4)[C@H](CO)O3)nn2)cc1	0	.	.	.	i	1	.	-2.7	2.9
18	CCCN(C)C[C@H]1Oc2ncc(-c3cccnc3)cc2C(=O)N([C@H](C)CO)C[C@H]1C	1	.	.	.	i	-4	.	-4.4	-2.7
19	CC(C)Cn1c(N)c(C(=O)COC(=O)c2c(F)cccc2F)c(=O)n(C)c1=O	-15	-6	0.65	-1%	i	-15	-3.8	-0.9	-1.2
20	CCN(CC)CCn1c(O)c(N=O)c2ccccc21	14	-9	0.65	6%	i	20	0.1	-13	1.1
21	O=S(=O)(c1cccc(-c2cn3cccnc3n2)c1)N1CCCCCC1	.	-3	0.72	6%	.	.	2.6	.	.
22	CCCCCCCCCCCCOC(=O)C[N+](C)(C)C	-48	-1	0.63	1%	i	-70	.	-15	4.1
23	COCC(=O)N(Cc1cc2ccc(C)cc2[nH]c1=O)c1ccc(OC)cc1	.	-8	0.65	3%	.	.	26	.	.
24	Cc1ccc(S(=O)(=O)N2CCC(=O)N(CCOCc3cccc(Cl)c3)CC2)cc1	.	-1	0.79	?	.	.	2.3	.	.
25	O=C(Nc1ccc2ccccc2n1)c1ccccc1Cl	-9	.	0.66	-1%	i	4	0.3	0.4	-0.4

Some entries already given with just HNF4A DNA FP:
cpd	SMILES	HNF4A DNA FP
19	CC(C)Cn1c(N)c(C(=O)COC(=O)c2c(F)cccc2F)c(=O)n(C)c1=O	-3.8
20	CCN(CC)CCn1c(O)c(N=O)c2ccccc21	0.1

Following part
item	SMILES	rRNA inh HTS	ALR H2O2 inh	E coli growth	Vif TR-FRET	FGF22 binding	rRNA inh HTS OD600	HNF4A DNA FP	rRNA inh HTS RFP	MLL AF4-AF9 inh
26	CC1CSc2nnc(CCc3ccccc3)n21 (configuration not stated)	4	-15	0.66	4%	i	4	5.0	-2.9	-3.6
27	O=C(NC1CCOc2ccccc21)c1ccc(=O)[nH]c1 (configuration not stated)	9	0	0.61	-5%	i	12	-1.1	-2.4	-0.7
28	CCC(=O)Nc1cccc(C2=NOC3(C2)C[C@H](C(N)=O)N(C(=O)CC#N)C3)c1 (some centres not stated)	12	-1	.	9%	i	14	3.5	-2.0	-4.8
29	CCCCSc1nc2[nH]ncc2c(=O)[nH]1	-9	-20	0.65	11%	i	3	-1.9	4.9	0.1
30	O=C(CN(C(=O)c1csnn1)c1cccc2c1CCCC2)NC1CCCC1	14	-9	0.68	-9%	.	18	0.2	0.6	-3.1
31	COc1ccc2c3c([nH]c2c1)[C@@H](CO)N(C(=O)c1ccc(F)cc1)CC31CCN(C(=O)Nc2cccc(F)c2)CC1	-3	.	.	.	i	-1	.	4.0	2.8
32	Cc1ccc(OC(=O)Cn2c(C(F)(F)F)nc3ccccc32)cc1	.	2	0.69	-11%	.	.	3.2	.	.
33	CSc1ccccc1NC(=O)C1CCCO1 (configuration not stated)	10	-4	0.69	?	i	1	-0.6	-6.2	-1.2
34	COc1ccc(C(=O)NCC[N+](C)(C)C)cc1	6	.	.	.	i	13	-2.5	-1.7	-2.9
35	CCCCN(C(=O)NC(=O)Nc1ccccc1C)S(C)(=O)=O	.	-3	0.71	19%	.	.	-1.2	.	.
36	C[C@@H]1CN([C@@H](C)CO)C(=O)c2cc(NC(=O)Nc3cccc4ccccc34)ccc2O[C@@H]1CN(C)C(=O)NC1CCCCC1	-1	.	.	.	i	-7	.	-1.1	0.8
37	CCN1C(=O)N(S(=O)(=O)C(F)(F)F)[C@@H](c2ccccc2)C(C(=O)OC)=C1C	6	1	.	-9%	i	5	4.6	-5.3	2.7
38	COc1ccc(NC(=O)N(C)C[C@@H]2OCCCC[C@@H](C)Oc3ccc(NS(C)(=O)=O)cc3C(=O)N([C@@H](C)CO)C[C@H]2C)cc1	-1	.	.	.	i	-5	.	0.0	-1.8
39	O=C(O)c1cc(NC(=O)c2ccc(Br)cc2)cc(NC(=O)c2ccc(Br)cc2)c1	-17	42	0.65	.	i	-19	3.0	4.7	-0.2
40	CC(=O)Nc1ccc(OCC(=O)N2CCC(Cc3ccccc3)CC2)cc1	-20*	-10	0.69	1%	i	-11*	2.1	1.0*	2.1
41	CO[C@@H]1CN(C)C(=O)c2ccc(NC(C)=O)cc2OC[C@@H](C)N(Cc2cc(-c3ccccc3)on2)C[C@H]1C	-3	.	.	.	i	-11	.	2.5	2.8
42	C=CCn1c(=O)n2ncnc2c2c3c(sc21)CCCC3	-4	-2	0.67	1%	i	-18	1.7	-8.5	5.8
43	CCOC(=O)N1CCC(NC(=O)c2cc3c(-c4cccc(OC)c4)nn(C)c3s2)CC1	.	-1	0.77	-12%	.	.	0.5	.	.
44	COCCn1c(SCC(=O)N(C(C)C)C(C)C)nnc1-c1cc2ccccc2cc1O	.	11	0.72	11%&-1%	.	.	0.5	.	.
45	COC(=O)C1C(c2ccc(Br)cc2)Nc2nnc(C(F)(F)F)n2C1(C)O (configuration not stated)	2	6	0.59	-5%	i	0	0.9	1.3	0.5
46	O=C(O)COc1ccc(/C=C/c2nc3ccc([N+](=O)[O-])cc3s2)cc1	-15	-19	0.69	.	i	-5	5.0	-0.9	-2.0
47	O=C(CSc1nc2ccccc2s1)N/N=C/c1cc([N+](=O)[O-])ccc1O	3	25	.	4%	i	4	0.3	-3.7	?
48	O=C(CSc1n[nH]c(-c2ccc(Br)cc2)n1)NC1CCCC1	-13	41	0.69	.	i	-18	-0.5	0.5	-1.8
49	COc1ccc(C(=O)NNC(=O)CSc2nnc(-c3ccc(O)cc3)n2C)cc1	9	17	.	-8%	i	2	-2.6	-4.6	-1.6
50	CCCCn1c(N)c(N(CCOC)C(=O)CSCc2ccccc2C)c(=O)[nH]c1=O	9	.	0.73	-10%	i	13	3.2	-1.8	-3.1
51	COc1ccc([N+](=O)[O-])cc1N(CC(O)CN(CC(C)C)CC(C)C)S(=O)(=O)c1ccc(C)cc1 (configuration not stated)	-3	-3	0.66	.	i	-1	-1.9	0.9	5.5
52	CN1CCN(C(=S)Nc2ccccc2Cl)CC1	.	1	0.81	3%	.	.	1.8	.	.
53	C[C@@H]1CN([C@H](C)CO)C(=O)c2cc(-c3ccc(C(=O)N(C)C)cc3)cnc2O[C@H]1CN(C)C(=O)c1cccnc1	2	.	.	.	i	7	.	-2.2	2.0
54	Cc1noc(C)c1S(=O)(=O)N(C)C[C@H]1OCCCC[C@H](C)Oc2ccc(NS(=O)(=O)c3ccc(Cl)cc3)cc2C(=O)N([C@@H](C)CO)C[C@@H]1C	1	.	.	.	i	1	.	-0.5	-0.3
55	COc1ccc(S(=O)(=O)N(CC(=O)NC2CC2)c2ccc(C)cc2)cc1OC	.	-13	0.75	-6%	.	.	-0.3	.	.
56	O=C(Nc1cccc(NS(=O)(=O)c2ccc(S(=O)(=O)NC3CC3)cc2)c1)c1ccccn1	.	1	0.71	3%	.	.	1.6	.	.
57	CCN(CC)c1cc(C)c2cc(NC(=O)CNC(C)=O)ccc2n1	.	.	0.67	-2%	.	.	-0.6	.	.
58	O=C(NCCc1ccc2c(c1)OCCO2)c1ccc([N+](=O)[O-])cc1Cl	2	-5	0.67	.	i	2	-2.5	0.8	-2.1
59	Cc1cccc(Cn2cc(SCC(=O)Nc3nccs3)c3ccccc32)c1	2	38	0.68	-9%	i	1	0.8	-1.6	6.5
